Screening results (PubChem BioAssay)
Rango complex inh: qHTS Assay for Inhibitors of Rango (Ran-regulated importin-beta cargo) - Importin beta complex formation. Rango CFP/YFP FRET sensor + importin beta, 45 min. Potency, µM (top dose mostly 92.2 µM), without a hit: top-dose inhibition of complex formation. Importin subunit beta-1 (Homo sapiens), Q14974. AID 540263, 2011. 0.031% of 340,000 active; active = rising FRET ratio curve, often small or poorly fitted; inconclusive = mostly compound fluorescence or quenching in the first reads; inactive = flat curves in all reads;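 further: potency means the concentration at half of the fitted maximal effect; 0% = DMSO wells and 100% = buffer wells lacking importin beta; nearly all actives have a fitted effect of over 15% in size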
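FRET biosensor Rango (snurportin 1 IBB between N-terminal EYFP and C-terminal Cerulean), 50 nM in PBS/1 mM DTT/0.02% Tween-20/0.1% BSA, preincubated 5 min RT with compound; 0.125 microM importin beta added, 45 min RT, CFP/YFP FRET ratio read.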
miR-21 reporter: qHTS Assay for Modulators of miRNAs and/orActivators of miR-21 | AID 2288, 2010 | Potency, µM (series often up to 38.3 µM), for the others: at the top dose reporter change, positive = more light | 340,000 tested, under 10 active | HeLa miR-21 FLuc reporter, luciferase, 48 h; active = well fitted rising curve with a large enough effect; inconclusive = small, poorly fitted or top-dose-only effect; inactive = no such curve, though single readings can be large or run the other way;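 further: % of control where 0% means no effect; miR-21 action dims this reporter so a rising signal means less miR-21 action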
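HeLa miR-21-FLuc reporter line, endogenous miR-21; 2000 cells/well in DMEM/10% FBS; compound titration up to ~40uM final, 48 h, 37 degree Celsius; luciferase detection reagent, 15 min lysis, CCD luminescence.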
GLA inh pH 4.5: qHTS Assay for Inhibitors of Human alpha-Galactosidase at pH 4.5. Alpha-galactosidase A (Homo sapiens), P06280. purified enzyme, 4-MU-alpha-Gal fluorescence, pH 4.5. activity change, negative = inhibition, % at 105 µM. 230,000 tested, under 10 active. AID 1467, 2008; inconclusive = small, poorly fitted or top-dose-only inhibition, or a rising curve; inactive = flat fitted curve, though single readings scatter; no compound was filed as active;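 further: 0% = full activity with enzyme and -100% = basal without enzyme; dose as in the result columns while the protocol names 77 µM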
Target sequence (P06280 whole entry, looked up): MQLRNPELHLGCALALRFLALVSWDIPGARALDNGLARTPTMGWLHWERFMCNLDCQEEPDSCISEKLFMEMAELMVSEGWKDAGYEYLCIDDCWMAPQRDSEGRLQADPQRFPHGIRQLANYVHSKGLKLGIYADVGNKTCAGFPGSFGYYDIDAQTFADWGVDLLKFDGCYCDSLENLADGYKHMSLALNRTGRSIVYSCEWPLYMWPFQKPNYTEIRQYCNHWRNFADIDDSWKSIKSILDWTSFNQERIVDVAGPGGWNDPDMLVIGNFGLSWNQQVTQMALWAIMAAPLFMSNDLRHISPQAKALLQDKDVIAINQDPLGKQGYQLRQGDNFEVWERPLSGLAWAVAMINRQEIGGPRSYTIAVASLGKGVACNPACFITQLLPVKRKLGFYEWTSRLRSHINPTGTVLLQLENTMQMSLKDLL
Rango dissoc inh: qHTS Assay for Inhibitors of RanGTP induced Rango (Ran-regulated importin-beta cargo) - Importin beta complex dissociation | 0.071% of 340,000 active | Biochemical FRET Rango-importin beta, RanGTP-induced dissociation | Potency, µM (doses to about 46.1 µM), inactives show at the top dose activity change, negative = inhibition | AID 540253, 2011 | Snurportin-1 (Homo sapiens) + GTP-binding nuclear protein Ran (Homo sapiens) + Importin …; active means falling FRET ratio curve, often poorly fitted, with flat reads before Ran was added; inconclusive means other falling curves, or compound fluorescence or quenching; inactive means flat or rising ratio curve;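 further: potency means the concentration at half of the fitted maximal effect; % of control where 0% means no effect; nearly all actives have a fitted effect of over 45% in size; -100% = wells without RanGTP and RCC1; the record marks most hits as doubtful in a second field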
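Compounds sat 5 min at room temperature with 0.1 uM Rango biosensor plus 0.25 uM importin beta, then FRET pre-read. RanGTP-RCC1 (0.6 uM Ran, 2mM GTP, 0.2 uM RCC1) added for 45 min, and the CFP/YFP post-read measured blocked complex dissociation.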
An asterisk follows results filed as active; ? = inconclusive; . = not tested or not shown; & = joins results of further samples. A portion of the library, so the mix of outcomes need not match the whole.

SMILES	Rango complex inh	miR-21 reporter	GLA inh pH 4.5	Rango dissoc inh
COCCn1c(-c2ccc(Cl)cc2)cnc1SCC(=O)NCCc1ccc(OC)c(OC)c1	4.2%	15%	2	18%
Cc1cc(C)c[n+](C(C)C(=O)c2ccc(Cl)cc2)c1 (stereo not given)	0.7%	-4%	.	38%
COc1ccc(S(=O)(=O)NCc2ccccc2Cl)cc1OC	2.5%	-15%	2	6%
CC(C)C(=O)N1CCN(c2nc(-c3ccccc3)c3c(c2C#N)CCCC3)CC1	3.2%	4%	8	-2%
CCOC(=O)c1ccc(NC(=O)CN2C(=O)C(C)SC(C)C2=O)cc1 (stereo not given)	-0.7%	2%	3	0%
Cc1ccc(C(=O)NC(=S)NNC(=O)c2ccccc2[N+](=O)[O-])cc1	-1.6%	-23%	-2	11%
COCCNC(=O)CCc1c(C)nc2c(c(C)nn2-c2ccc(C)cc2)c1C	2.1%	3%&-7%	.	14%
O=C1C2C3C=CC(CC3)C2C(=O)N1/N=C/c1c[nH]c2ccccc12 (stereo not given)	-7.1%	-48%	-6	1%
CC1CCc2nc3ccc(S(=O)(=O)N4CCC(C(=O)O)CC4)cc3c(C(=O)O)c2C1 (stereo not given)	1.6%	1%	.	2%
COc1ccc(NC(=O)CC(C)NCCCN2CCCC2=O)cc1 (stereo not given)	-3.0%	0%	.	-13%
Cc1cccc(CN2C(=O)CSc3ccc(C(=O)NC4CC4)cc32)c1	-1.3%	10%	.	-1%
CCOc1ccc(OCC(=O)OCn2c(SC)nnc(C)c2=O)cc1	-0.5%	-1%	7	17%
Cc1cc(NS(=O)(=O)c2ccc(NC(=O)C(C)Oc3ccc(C(C)C)cc3)cc2)no1 (stereo not given)	-1.1%	-6%	.	-6%
CC1CCC(C(C)C)C(OCC(O)CNC(C)C)C1 (stereo not given)	-0.9%	-6%	-3	9%
CS(=O)(=O)/C(C#N)=C/c1cccn1S(=O)(=O)c1ccccc1	-2.5%	-2%	.	-1%
O=C(N/C(=C/c1ccc(F)cc1)C(=O)N1CCCC1)c1ccccc1	0.0%	-7%	.	3%
O=C(COc1cccc2ccccc12)N/N=C/c1ccc(Sc2nc3ccccc3s2)o1	-2.0%	0%	7	-20%
O=C(/C=C\c1ccco1)Nc1ccc(N2CCN(C(=O)c3ccccc3)CC2)cc1	-0.9%	-3%	-2	21%
COc1ccc(Cl)cc1Nc1cc(C)nc2nc(C)nn12	2.1%	-2%	2	-19%
Cc1cc(NC(=O)CSc2n[nH]c(-c3ccccc3Br)n2)no1	1.8%	.	.	13%
COc1ccccc1CCCNC(=O)C1CCC(=O)N(Cc2ccccc2F)C1 (stereo not given)	4.4%	-60%	.	16%
CN1/C(=C\C=Nc2ccc3ccccc3c2)C(C)(C)c2ccccc21	.	-16%	1	.
Cc1cc(/C=C2\Sc3ccccc3N2C)cc(C)[n+]1CC1CCCO1 (stereo not given)	?	27%	-21	?
CCOc1ccc(C(=O)N2CCN(c3cnn(-c4ccccc4)c(=O)c3Cl)CC2)cc1	7.1%	5%	-23	0%

Rewritten with values ahead of the structure: entries from further up
Rango complex inh	miR-21 reporter	GLA inh pH 4.5	Rango dissoc inh	molecule
-0.9%	-6%	-3	9%	CC1CCC(C(C)C)C(OCC(O)CNC(C)C)C1 (stereo not given)
-2.5%	-2%	.	-1%	CS(=O)(=O)/C(C#N)=C/c1cccn1S(=O)(=O)c1ccccc1
0.0%	-7%	.	3%	O=C(N/C(=C/c1ccc(F)cc1)C(=O)N1CCCC1)c1ccccc1
-2.0%	0%	7	-20%	O=C(COc1cccc2ccccc12)N/N=C/c1ccc(Sc2nc3ccccc3s2)o1

Further results:
SMILES	Rango complex inh	miR-21 reporter	GLA inh pH 4.5	Rango dissoc inh
CS(=O)(=O)Oc1ccc(/C=C2\C(=N)N3N=C(CC(=O)N4CCOCC4)SC3=NC2=O)cc1Cl	-1.0%	-2%	.	0%
Cc1cccc(C)c1NC(=O)CNC(=O)C1CCCC1	0.2%	.	.	-13%
CCOC(=O)C1=C(C)OC(N)=C(C#N)C1c1ccc(C)s1 (stereo not given)	-2.2%	-7%	8	-5%
Cc1cccc(N2CCN(C(=O)C3CCN(S(=O)(=O)N4CCOCC4)CC3)CC2C)c1 (stereo not given)	0.1%	7%	2	-1%
O=C(OCN1C(=O)c2ccccc2C1=O)c1cccc(S(=O)(=O)N2CCOCC2)c1	1.2%	-1%	.	20%
N#Cc1c(-c2cccc(Cl)c2)[nH]c(=S)[nH]c1=O	1.7%	3%	-5	-9%
CC(=O)Oc1ccc2c(c1)O/C(=C\c1ccncc1)C2=O	?	-1%	-6	?
O=C(NNC(=O)C1CCN(S(=O)(=O)c2ccc(Cl)cc2)CC1)c1ccc(S(=O)(=O)N2CCCCC2)cc1	-2.3%	0%	4	3%
COc1ccc(NC(=O)c2ccccc2SC)cc1	0.3%	-53%	3	-1%
CCCn1c(N)c(N(CCOC)C(=O)Cc2ccc(S(=O)(=O)N3CCOCC3)s2)c(=O)[nH]c1=O	?	.	.	-11%
COc1cccc(-c2cc(C(=O)NC3CC3)c3ccccc3n2)c1	1.2%	8%	.	5%
Cc1ccc(C2=NN(S(C)(=O)=O)C(c3ccc4c(c3)OCO4)C2)cc1 (stereo not given)	?	-64%	-1	0%
CC(Oc1ccc([N+](=O)[O-])cc1Cl)C(=O)Nc1ccc(C(N)=O)cc1 (stereo not given)	?	-9%	-1	-10%
FC(F)(F)c1cnc(Oc2ccc(-c3nnco3)cc2)c(Cl)c1	-2.2%	9%	-3	6%
Clc1ccc2c(N/N=C/c3cccnc3)ccnc2c1	-3.9%	-2%	-14	8%
O=C(Nc1cc(Cl)ccc1Cl)N1CCCC1	0.0%	-12%	-4	-10%
CC(OC(=O)C(NC(=O)c1ccco1)C(C)C)C(=O)Nc1ncc(Cl)cc1Cl (stereo not given)	-3.0%	-4%	-3	32%
CN(C)CCCOC(=O)c1ccc(Cl)cc1	3.4%	5%	1	5%
Cn1cccc1C(=O)NNC(=O)COc1ccc(Br)cc1	-1.1%	.	.	16%
C/C(N)=C(/C#N)C(=O)COC(=O)CSc1ccc2ccccc2c1	0.5%	-2%	-2	-7%
CCOc1ccc(C(=O)c2ccc([N+](=O)[O-])cc2Cl)cc1	-0.1%	0%	5	4%
O=C(CN1c2cccc3cccc(c23)S1(=O)=O)N1CCCCC1	2.0%	.	.	0%
Nc1cc(C(=O)OCC(=O)NCC2CCCO2)ccc1Cl (stereo not given)	-0.5%	-5%	8	1%
COc1ccccc1NS(=O)(=O)c1cc(NC(=O)CN2C(=O)NC3(CCCCC3)C2=O)ccc1C	-2.6%	.	.	-9%
O=C(NCC1CCCO1)C(c1ccc(F)cc1)N(CC1CCCO1)C(=O)c1ccc(-c2ccccc2)[nH]1 (stereo not given)	-0.6%	3%	-8	7%
Cc1cccc(N(C)C(=O)COc2cc(=O)n(C)c3ccccc23)c1	-1.7%	2%	-2	4%
CN(Cc1c(C(=O)N/N=C/c2ccccc2)nnn1-c1nonc1N)C1CCCCC1	-0.6%	-3%	.	16%
CCOc1ccc(Br)cc1S(=O)(=O)NC(=O)c1ccccc1	-1.8%	-1%	5	6%
N#Cc1ccsc1NC(=O)CN1C(=O)NC2(CCCCC2)C1=O	?	.	.	?
CCC(=O)c1ccc(OCc2ccc(C(=O)OC)cc2)c(OC)c1	-2.3%	-11%	-5	0%
COc1cccc(OC)c1C(=O)Nc1ccccc1C(=O)N1CCOCC1	-4.8%	-1%	-7	-4%
CC(C)c1ccc(NC(=S)NN(c2ccccc2)c2ccccc2)cc1	6.5%	-1%	-5	-19%
COC(=O)CC1=NN(c2nc(C)cc(C)n2)C(=O)C1	-2.0%	1%	10	-7%
CC1(C)CC(=O)C(C(N)=NC(=O)c2ccccc2)=C(O)C1	1.3%	-2%	2	9%
CCCCn1nnnc1SCC(=O)Nc1ccc2c(c1)OCO2	-1.3%	-24%	-1	0%
CCC(C)[C@H]1CNCCN1CCc1cc(C(F)(F)F)cc(C(F)(F)F)c1 (stereo not given in full)	-1.0%	.	.	-13%

A different layout for some results above:
| smiles | Rango complex inh | miR-21 reporter | GLA inh pH 4.5 | Rango dissoc inh |
| --- | --- | --- | --- | --- |
| Cc1ccc(C2=NN(S(C)(=O)=O)C(c3ccc4c(c3)OCO4)C2)cc1 (stereo not given) | ? | -64% | -1 | 0% |
| Cc1cccc(C)c1NC(=O)CNC(=O)C1CCCC1 | 0.2% | . | . | -13% |

The results go on:
SMILES	Rango complex inh	miR-21 reporter	GLA inh pH 4.5	Rango dissoc inh
CC1=NN(C(=O)Cc2ccc([N+](=O)[O-])cc2)C(O)(C(F)(F)C(F)(F)F)C1 (stereo not given)	-4.8%	-7%	2	60%
CCN=C(NCC)SC1CC(=O)N(c2ccc(F)cc2)C1=O (stereo not given)	3.3%	-7%	2	2%
Cc1cc(C)cc(N(CC(=O)NCC2CCCO2)C(=O)CCC(=O)Nc2nccs2)c1 (stereo not given)	-0.9%	-2%	.	-2%
CC(=O)Nc1ccc(C(=O)CCl)cc1	0.0%	.	.	-3%
CCOc1ccc(-c2nnc3sc(COc4ccc(C)cc4)nn23)cc1	1.9%	0%	-12	1%
Clc1ccc(Cn2ncc3c(N4CCCCC4)ncnc32)c(Cl)c1	0.8%	-5%	-6	-7%
CCCN1CCC(=O)N([C@H](CSc2ccc(C)cc2)Cc2ccccc2)CC1	-2.1%	17%	-7	3%
O=C(Nc1cccc(C(=O)N2CCOCC2)c1)c1ccccc1	?	-2%	11	-11%
COC(=O)C1=C(C(=O)OC)SC(=C2C(=S)C(C)(C)N(C(=O)C3CC3)c3ccccc32)S1	-2.1%	0%	4	-2%
ONC(=Nc1ccc(Cl)cc1)c1ccc(Cl)cc1	1.9%	-17%	-6	-12%
Cc1ccc(C(=O)NCCCNC(=O)c2ccco2)cn1	3.2%	1%	.	8%
Cc1ccc(Oc2ccc(S(=O)(=O)Nc3ccc(C(=O)O)cc3)cc2)cc1	-0.6%	.	.	16%
CCN(C(=O)CSc1nc(C)c(C)c(C)n1)C1CCS(=O)(=O)C1 (stereo not given)	7.4%	.	.	1%
CC(C)c1nc2ccccc2c2nnc(SCC(=O)NCc3ccco3)n12	0.1%	-1%	3	-1%
O=C(Cn1nnc(-c2ccccc2)n1)Nc1ccccc1N1CCOCC1	-0.9%	-2%	3	12%
O=C1c2ccccc2C(=O)N1S(=O)(=O)c1ccccc1	0.0%	-3%	.	12%
O=C(/C=C/c1ccc([N+](=O)[O-])cc1)OCC(=O)N1CCCCCC1	0.4%	.	.	0%
COC(=O)c1sccc1NC(=S)N1CCCCC1C (stereo not given)	-0.6%	-4%	4	-19%
O=C(O)C1Nc2ccc(Br)cc2C2C=CCC12 (stereo not given)	?	-2%	.	-28%
CC(C)(C)c1ccc(C(=O)NCC(=O)OCCN2C(=O)c3ccccc3C2=O)cc1	4.4%	.	.	-8%
Cc1ccc2cc(CN(C(=O)c3ccco3)c3cccc(C)c3C)c(=O)[nH]c2c1	3.1%	0%	-6	11%
CCNc1nc(NCC)nc(N/N=C/c2ccc(O)c(O)c2)n1	-2.5%	-62%	-4	1%
CCNC(=S)N(CCN(C)C)Cc1cc2cc(OCC)ccc2[nH]c1=O	-1.4%	-3%	7	-9%
Cc1sc2ncnc(N3CCC(C(=O)Nc4ccc(C#N)cc4)CC3)c2c1C	-0.1%	.	.	20%
Cn1c(N)c(C(=O)COC(=O)CNC(=O)c2ccccc2)c(=O)n(C)c1=O	-1.2%	.	.	-16%
CC12CN3CC(C)(CN(C1)C3c1ccc(Cl)cc1Cl)C2=O (stereo not given)	0.4%	3%	3	10%
Cc1ccc(S(=O)(=O)N2CCOCC2)cc1NC(=O)COC(=O)c1ccc2c(c1)OCO2	-1.4%	1%	-1	1%
